FGF22 binding: binders of recombinant human FGF22 by thermal shift. Q9HCT0. SYPRO orange fluorescence; percent of sucrose octasulfate shift, DMSO zero. calls only at 9.99 µM. hit rate 1.5% among 340,000. AID 651658;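 active = melting point raised past a set limit in the mean and every replicate; inconclusive = no clear call; three in four hits are not shown here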
Target sequence (Q9HCT0 whole entry, looked up): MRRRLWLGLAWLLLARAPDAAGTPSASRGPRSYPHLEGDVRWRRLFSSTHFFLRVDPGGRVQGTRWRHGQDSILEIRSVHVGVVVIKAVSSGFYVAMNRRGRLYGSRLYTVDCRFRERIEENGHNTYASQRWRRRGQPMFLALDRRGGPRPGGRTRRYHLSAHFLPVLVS
HNF4A DNA FP: change in binding of human HNF4 alpha to DNA. P41235. HNF4a-FITC DNA binding, fluorescence polarization, 1 h. activity change, % at 10 µM. hit rate 0.3% among 360,000. AID 1224865; in the data active = activity change above about 30%, passing the limit was not always enough;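 note: controls were the assay level and a saturating level of protein; the project sought stronger binding though the title names inhibitors; some compounds called inactive have numbers as strong as hits; positive values seem to mean higher polarization but the record does not say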
Target sequence (P41235 whole entry, looked up): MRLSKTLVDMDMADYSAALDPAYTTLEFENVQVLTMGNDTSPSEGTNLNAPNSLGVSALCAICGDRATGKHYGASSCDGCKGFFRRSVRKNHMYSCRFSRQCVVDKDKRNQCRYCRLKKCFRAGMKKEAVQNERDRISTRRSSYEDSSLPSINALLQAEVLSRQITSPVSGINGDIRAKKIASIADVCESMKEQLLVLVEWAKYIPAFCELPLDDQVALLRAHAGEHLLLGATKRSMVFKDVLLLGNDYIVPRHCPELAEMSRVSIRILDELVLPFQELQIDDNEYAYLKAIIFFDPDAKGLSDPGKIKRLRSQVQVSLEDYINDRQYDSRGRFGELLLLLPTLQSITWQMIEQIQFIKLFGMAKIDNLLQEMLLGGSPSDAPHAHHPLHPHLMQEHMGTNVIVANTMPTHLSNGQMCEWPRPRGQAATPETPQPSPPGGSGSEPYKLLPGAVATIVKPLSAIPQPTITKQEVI
rRNA inh HTS: inhibitors of bacterial rRNA selective over humanized ribosomes | E. coli WT GFP vs humanized-ribosome RFP mutants, fluorescence, 24 h; hits give low values; DMSO median 0, no signal -100 | GFP signal change (wild-type ribosome), % (test concentration not listed) | hit rate 1.6% among 350,000;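 active = significant combined selectivity score with lowered wild-type GFP, culture density cut under 30%, mutant RFP and density less affected; inactive = any of these conditions unmet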; note: one replicate is shown; some compounds called inactive have numbers as strong as hits
E coli growth: inhibitors of Escherichia coli growth. AID 1053175. hit rate 0.21% among 330,000. OD600 absorbance (no concentration beside the values). OD600, 23 h; hits give low values;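 active = OD600 absorbance below the run mean of sample wells minus 3.6 SD, in any replicate, cut at about 0.56 in these data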;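 note: stock transfer was 300 nL into about 60 µL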
Vif TR-FRET: HIV-1 Vif–A3G interaction blockers – biochemical, TR-FRET, GST-Vif 1-94, biotin-A3G peptide, dose response retest, primary screen (AID 1117319); TR-FRET GST-Vif / biotin-A3G peptide binding; higher % means a stronger effect; test concentration not given here; strong numbers were not always called active; inhibition, %, or IC50 in µM where a hit was titrated; hit rate 0.57% among 260,000;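 active = above the screen mean plus three standard deviations and confirmed in dose response; inconclusive = results disagree or hit not tested in dose response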;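 note: Vif residues 1-94 fused to GST binding biotinylated APOBEC3G peptide 110-148; 0% = full assay without inhibitor and 100% = GST in place of GST-Vif; retest series ran down from 100 µM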
ALR H2O2 inh: blocks human ALR sulfhydryl oxidase activity. inhibition, % (concentration not given with the values). purified ALR, DTT oxidation, H2O2 HRP-luminol luminescence. hit rate 3.8% among 290,000. P55789;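 active = mean and each replicate at 75% or more; inconclusive = only one of the two met; inactive = neither met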;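 note: stock transfer was 7.5 nL into about 7.5 µL; 0% = neutral wells and 100% = wells with inactivated enzyme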
Target sequence (P55789 whole entry, looked up): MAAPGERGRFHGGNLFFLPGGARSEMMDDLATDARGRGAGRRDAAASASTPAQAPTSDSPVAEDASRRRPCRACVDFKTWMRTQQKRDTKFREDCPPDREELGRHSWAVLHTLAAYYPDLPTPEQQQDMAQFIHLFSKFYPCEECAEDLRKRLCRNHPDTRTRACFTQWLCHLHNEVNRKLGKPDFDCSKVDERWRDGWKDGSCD
MLL AF4-AF9 inh: blocks AF4 peptide binding to human AF9; AlphaScreen, biotin-AF4 peptide binding to FLAG-AF9; inhibition, % at 10 µM; hit rate 0.47% among 350,000; AID 651704;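 active = every replicate reaching a set inhibition limit, whatever the replicate mean, cut at about 25% in these data; inconclusive = mean inhibition reaches that limit but some replicates miss it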;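 note: 0% = plate neutral control median and 100% = total signal loss; the record names both 10 and 1 µM as test concentration; the first replicate is given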
rRNA inh HTS OD600: also measured in rRNA inh HTS; calls as there; OD600 change, %; measured here: OD600 growth;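 optical density of the mix in the first replicate; 0 = DMSO median and -100 = no signal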
rRNA inh HTS RFP: second read-out of rRNA inh HTS, no call of its own (marks repeat the call); RFP signal change, %; measured here: RFP humanized mutant strains;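 first replicate; 0 = DMSO median and -100 = no signal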
Active calls of the source: *; & = joins results of further samples. These rows are one share of the data; rates above refer to the full screens.

For Cc1ccccc1NS(=O)(=O)c1ccc2c(c1)CCC(=O)N2 the results were FGF22 binding inactive, HNF4A DNA FP 2.3, rRNA inh HTS -0.4, MLL AF4-AF9 inh -6.9, rRNA inh HTS OD600 2.9 and rRNA inh HTS RFP -5.7.
`CC1C(=O)N2CCCc3cc(S(=O)(=O)N4CCN(c5cccc(Cl)c5)CC4)cc1c32` (stereo not drawn) gave FGF22 binding inactive, HNF4A DNA FP 3.4, rRNA inh HTS -3.2, E coli growth 0.665, Vif TR-FRET 0.6%, ALR H2O2 inh 0.1, MLL AF4-AF9 inh 3.9, rRNA inh HTS OD600 -4.6 and rRNA inh HTS RFP -0.6.
`CCCN1C[C@@H](C)[C@H](OC)CN(C)C(=O)c2ccc(NC(=O)c3cccc(OC)c3)cc2OC[C@@H]1C` gave FGF22 binding inactive, rRNA inh HTS -1.2, MLL AF4-AF9 inh 0.8, rRNA inh HTS OD600 -3.0 and rRNA inh HTS RFP 0.6.
For O=C([C@H]1[C@H](CO)[C@H]2Cn3c(ccc(-c4ccccc4F)c3=O)[C@@H]1N2C(=O)C1CCC1)N1CCOCC1 the results were FGF22 binding inactive, rRNA inh HTS 1.7, MLL AF4-AF9 inh -0.1, rRNA inh HTS OD600 8.9 and rRNA inh HTS RFP -2.9.
Cc1cc(C)cc(C(=O)N(CCc2ccccc2)C2CC3CCC(C2)N3C)c1 (stereo not drawn) was read as FGF22 binding inactive, HNF4A DNA FP -5.6, rRNA inh HTS -6.0, E coli growth 0.669, ALR H2O2 inh -0.9, MLL AF4-AF9 inh 1.1, rRNA inh HTS OD600 -15.2 and rRNA inh HTS RFP 14.1.
For O=C(CSC(=S)N1CCSCC1)c1ccc(Cl)cc1 the results were FGF22 binding inactive, HNF4A DNA FP -0.4, rRNA inh HTS 11.1, E coli growth 0.729, Vif TR-FRET 7.2%, ALR H2O2 inh 0.0, MLL AF4-AF9 inh -2.4, rRNA inh HTS OD600 9.6 and rRNA inh HTS RFP 4.3.
CSc1nnc(-c2ccccc2N=Cc2c(C)[nH]n(-c3ccc4ccccc4c3)c2=O)c(=O)[nH]1 was read as HNF4A DNA FP -0.5, E coli growth 0.781, Vif TR-FRET 0.8% and ALR H2O2 inh 7.4.
Screening C[C@H](CO)N1C[C@H](C)[C@H](CN(C)Cc2ccncc2)Oc2ccc(NC(=O)Nc3cccc4ccccc34)cc2C1=O returned FGF22 binding inactive, rRNA inh HTS -2.7, MLL AF4-AF9 inh 3.7, rRNA inh HTS OD600 -12.8 and rRNA inh HTS RFP 1.4.
CCC(CO)Oc1cc(NCc2ccc(O)cc2)c2ncn(C(C)C)c2c1 (stereo not drawn) was read as FGF22 binding inactive, HNF4A DNA FP 0.2, rRNA inh HTS 6.6, E coli growth 0.72, ALR H2O2 inh 98.6*, MLL AF4-AF9 inh 5.2, rRNA inh HTS OD600 -3.1 and rRNA inh HTS RFP 0.5.
C/C(=C\C(=O)c1ccc(C)cc1)NCc1ccc(F)cc1 was read as HNF4A DNA FP -1.3, E coli growth 0.728, Vif TR-FRET -8.1% and ALR H2O2 inh 7.6.
COCC(=O)N1C[C@@H](C)[C@H](OC)CN(C)C(=O)c2ccc(NC(=O)c3cc(C)on3)cc2OC[C@@H]1C was read as FGF22 binding inactive, rRNA inh HTS 1.7, MLL AF4-AF9 inh 3.3, rRNA inh HTS OD600 -0.6 and rRNA inh HTS RFP -4.0.
`CNc1ccc(-c2cccc(C(=O)N3CCOCC3)c2)cn1` gave FGF22 binding inactive, HNF4A DNA FP 0.6, rRNA inh HTS 0.9, MLL AF4-AF9 inh -0.6, rRNA inh HTS OD600 12.4 and rRNA inh HTS RFP 0.5.
`C[C@@H]1CCCCO[C@@H](CN(C)C(=O)CCC(F)(F)F)[C@H](C)CN([C@H](C)CO)C(=O)c2cc(NS(=O)(=O)c3cn(C)cn3)ccc2O1` gave FGF22 binding inactive, rRNA inh HTS -2.4, MLL AF4-AF9 inh -4.7, rRNA inh HTS OD600 -0.2 and rRNA inh HTS RFP -0.2.
`Cc1ccc(N2CCN(C(=O)c3ccccc3)CC2)c(C)c1` gave FGF22 binding inactive, HNF4A DNA FP 2.5, rRNA inh HTS -22.1, E coli growth 0.68, Vif TR-FRET 4.7%, ALR H2O2 inh 23.1, MLL AF4-AF9 inh 4.9, rRNA inh HTS OD600 -33.1 and rRNA inh HTS RFP -4.4.
`Cn1c(=O)c2c(nc(NN=C3CCCC3)n2C)n(C)c1=O` gave FGF22 binding inactive, HNF4A DNA FP -1.4, rRNA inh HTS 3.5, E coli growth 0.688, Vif TR-FRET inconclusive, rRNA inh HTS OD600 4.3 and rRNA inh HTS RFP -0.9.
For O=C(c1ccc2c(=O)n3c(nc2c1)CCCCC3)N1CCN(c2ccccc2)CC1 the results were FGF22 binding inactive, HNF4A DNA FP 5.3, rRNA inh HTS -3.5, E coli growth 0.644, Vif TR-FRET -8.1%, ALR H2O2 inh 36.0, MLL AF4-AF9 inh -1.1, rRNA inh HTS OD600 -6.2 and rRNA inh HTS RFP -7.4.
Screening CCOC(=O)c1cc(NC(=O)c2ccccc2)c(=O)oc1C(F)(F)F returned FGF22 binding inactive, HNF4A DNA FP 46.1*, rRNA inh HTS 17.8, E coli growth 0.652, Vif TR-FRET -2.6%, MLL AF4-AF9 inh 0.8, rRNA inh HTS OD600 16.6 and rRNA inh HTS RFP 2.2.
Screening Cc1ccc(CN2CCS(=O)(=O)CC2)cc1 returned HNF4A DNA FP -2.9, E coli growth 0.752 and Vif TR-FRET 5.5%.
Screening Cc1c(C(=O)N2CCCC2)sc(NC(=O)c2cccc(Cl)c2)c1C#N returned HNF4A DNA FP -1.3, E coli growth 0.669, Vif TR-FRET -0.2% and ALR H2O2 inh 10.7.
`CCOC(=O)N1CCN(S(=O)(=O)c2ccc3[nH]cc(C(=O)O)c(=O)c3c2)CC1` gave HNF4A DNA FP -1.1, E coli growth 0.763, Vif TR-FRET 0.0% and ALR H2O2 inh -3.1.
For CCCn1nnnc1SCC(=O)N1CCOCC1 the results were HNF4A DNA FP -1.5, E coli growth 0.69 and Vif TR-FRET -0.9%.
`O=C(C[C@@H]1CC[C@@H]2[C@H](COC[C@H](O)CN2C(=O)c2cnccn2)O1)NCc1ccc(Oc2ccccc2)cc1` gave FGF22 binding inactive, rRNA inh HTS -5.6, MLL AF4-AF9 inh -3.1, rRNA inh HTS OD600 -7.0 and rRNA inh HTS RFP 0.4.
CC(C)NC1CCC(Nc2ccnc3cc(Cl)ccc23)CC1 (stereo not drawn) was read as FGF22 binding inactive, HNF4A DNA FP 0.4, rRNA inh HTS 21.2, E coli growth 0.657, Vif TR-FRET 0.0%, MLL AF4-AF9 inh -4.9, rRNA inh HTS OD600 12.4 and rRNA inh HTS RFP -0.5.
COCCN1CCn2c(nc3cc(NC(=O)c4cccs4)ccc32)C1 was read as HNF4A DNA FP 6.7, E coli growth 0.697, Vif TR-FRET 4.4% and ALR H2O2 inh -19.8.
For COc1ccc(S(=O)(=O)Nc2cccc(S(=O)(=O)N3CCCCC3)c2)cc1 the results were FGF22 binding inactive, HNF4A DNA FP 1.6, rRNA inh HTS -18.5, E coli growth 0.664, Vif TR-FRET -7.3%, ALR H2O2 inh 4.9, MLL AF4-AF9 inh 4.2, rRNA inh HTS OD600 -54.1 and rRNA inh HTS RFP 1.7.
For CCN(c1ccccc1)S(=O)(=O)c1ccc(Oc2ccccc2C(C)=O)nc1 the results were FGF22 binding inactive, HNF4A DNA FP 5.1, rRNA inh HTS -9.1, E coli growth 0.72, Vif TR-FRET 1.1%, ALR H2O2 inh 0.8, MLL AF4-AF9 inh 3.2, rRNA inh HTS OD600 -35.8 and rRNA inh HTS RFP 1.0.
Screening COc1ccc(C(=O)NC(=S)Nc2ccc(NC(=O)c3ccco3)cc2)cc1[N+](=O)[O-] returned FGF22 binding inactive, HNF4A DNA FP -0.5, rRNA inh HTS -1.1, Vif TR-FRET 5.0%, ALR H2O2 inh -1.0, MLL AF4-AF9 inh -9.4, rRNA inh HTS OD600 -3.1 and rRNA inh HTS RFP -9.3.
`Cc1ccc(S(=O)(=O)NC(CC(C)C)C(=O)NCC(C)(C)N2CCOCC2)cc1` (stereo not drawn) gave FGF22 binding inactive, HNF4A DNA FP -4.0, rRNA inh HTS 2.3, E coli growth 0.73, Vif TR-FRET 2.6%, ALR H2O2 inh 0.4, MLL AF4-AF9 inh -0.9, rRNA inh HTS OD600 12.4 and rRNA inh HTS RFP 0.9.
For O=C(CNc1cccc(Cl)c1)c1ccc(Br)cc1 the results were FGF22 binding inactive, HNF4A DNA FP 7.4, rRNA inh HTS -4.0, E coli growth 0.672, Vif TR-FRET -2.4%, ALR H2O2 inh 3.2, MLL AF4-AF9 inh -4.4, rRNA inh HTS OD600 4.3 and rRNA inh HTS RFP 0.7.
Screening COc1cc2c(cc1OC)-c1cc(OCCN3CCOCC3)nc(=O)n1CC2 returned HNF4A DNA FP 3.4, E coli growth 0.726 and Vif TR-FRET 6.1%.
For CSCCC(NS(=O)(=O)c1ccccc1F)C(=O)NNC(=O)c1csc(N2CCOCC2)n1 (stereo not drawn) the results were FGF22 binding inactive, HNF4A DNA FP 1.8, rRNA inh HTS 10.5, E coli growth 0.632, Vif TR-FRET 4.7%, MLL AF4-AF9 inh -8.7, rRNA inh HTS OD600 8.0 and rRNA inh HTS RFP -0.2.
Clc1ccc2[nH]c3c(NCCCN4CCOCC4)ncnc3c2c1 was read as HNF4A DNA FP -0.1, E coli growth 0.671, Vif TR-FRET 19.6% and ALR H2O2 inh -9.2.
O=C(Nc1cccc2c1CCCC2)c1cccc(F)c1 was read as FGF22 binding inactive, HNF4A DNA FP -0.2, rRNA inh HTS 10.1, E coli growth 0.594, Vif TR-FRET -3.3%, ALR H2O2 inh 1.6, MLL AF4-AF9 inh 1.1, rRNA inh HTS OD600 7.1 and rRNA inh HTS RFP -2.0.
NC(Cc1ccc(Cl)cc1)c1csc(NC(=O)NCC2CCCCC2)n1 (stereo not drawn) was read as FGF22 binding inactive, HNF4A DNA FP -2.2, rRNA inh HTS -47.6, MLL AF4-AF9 inh 2.2, rRNA inh HTS OD600 -75.0 and rRNA inh HTS RFP -14.6.
`Cc1ccc(S(=O)(=O)Nc2ccc(N3CCN(C)CC3)nc2)cc1` gave FGF22 binding inactive, HNF4A DNA FP -2.2, rRNA inh HTS 19.4, E coli growth 0.733, Vif TR-FRET -3.6%, ALR H2O2 inh 9.9, MLL AF4-AF9 inh 1.6, rRNA inh HTS OD600 12.5 and rRNA inh HTS RFP 1.9.
`CCCCNC(=O)c1onc(CSc2ccccc2)c1C(=O)O` gave FGF22 binding inactive, HNF4A DNA FP -3.5, rRNA inh HTS -7.9, E coli growth 0.617, Vif TR-FRET 4.2%, ALR H2O2 inh 19.2, MLL AF4-AF9 inh -1.7, rRNA inh HTS OD600 -4.1 and rRNA inh HTS RFP 0.0.
Screening N#CC1=C(SCC(=O)c2ccc(Br)cc2)NC2=C(C(=O)CCC2)C1c1ccco1 (stereo not drawn) returned HNF4A DNA FP -0.9, E coli growth 0.702, Vif TR-FRET 26.0% and ALR H2O2 inh -11.5.
C[C@H]1CN([C@@H](C)CO)C(=O)CCCn2nncc2CO[C@@H]1CN(C)Cc1ccc(Cl)c(Cl)c1 was read as FGF22 binding inactive, HNF4A DNA FP 2.9, rRNA inh HTS -0.3&-9.6, Vif TR-FRET -0.9%, MLL AF4-AF9 inh -1.1&1.9, rRNA inh HTS OD600 -15.7&-12.9 and rRNA inh HTS RFP 1.2&2.5.

Assay outcomes (PubChem BioAssay)
